# High-throughput results (PubChem BioAssay)
# TRHR PAM: allosterically enhances the human TRH receptor; P34981; TRHR cells, fluo-8 calcium fluorescence, EC20 TRH enhancement; enhancement, % at 2 µM; 360,000 compounds, 0.66% hits; AID 493056; in the data active = enhancement above about 30%; note: 0% is about no effect
# Target sequence (P34981 whole entry, looked up): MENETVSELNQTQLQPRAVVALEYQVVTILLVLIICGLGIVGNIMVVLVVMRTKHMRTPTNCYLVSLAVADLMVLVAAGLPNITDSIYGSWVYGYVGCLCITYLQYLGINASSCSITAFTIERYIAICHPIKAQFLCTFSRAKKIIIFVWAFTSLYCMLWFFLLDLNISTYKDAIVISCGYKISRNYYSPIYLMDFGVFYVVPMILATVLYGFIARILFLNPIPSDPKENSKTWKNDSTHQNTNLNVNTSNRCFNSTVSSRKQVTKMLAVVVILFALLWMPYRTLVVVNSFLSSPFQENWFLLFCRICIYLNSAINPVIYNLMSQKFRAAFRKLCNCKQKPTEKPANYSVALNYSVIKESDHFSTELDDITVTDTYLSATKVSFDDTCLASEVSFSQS
#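 Enhancer read-out: after compound pinning and an initial kinetic agonist-mode read, an EC20 of TRH (10 nM final) was injected and fluo-8 calcium signal (Ex 480/Em 530) followed at 1 s/cycle for 100 cycles in TRHR-expressing cells.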
# D2 antag: D2 dopamine receptor (human) antagonism | HEK293 TREx D2 cells, calcium flux, dopamine EC80 | inhibition, % at 10 µM | 340,000 compounds, 2% hits | AID 485344; in the data active = inhibition above about 30%; note: 0% is about no effect
#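 Read-out: kinetic calcium fluorescence (1 cycle/s) in inducible HEK293 T-REx D2 cells after an EC80 dopamine addition that followed 180 s compound preincubation. Loss of the dopamine response indicates antagonism.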
# D2 potentiator: positively modulates the human D2 dopamine receptor allosterically. 340,000 compounds, 0.34% hits. P14416. AID 485347. potentiation, % at 10 µM. HEK293 T-REx D2, calcium flux, EC20 dopamine potentiation;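 active = potentiation over 3 SD above the plate norm, cut at about 30% in these data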; note: 0% is about no effect
#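 Cells plated with tetracycline inducer and held overnight at 30 C; calcium dye loaded 30–90 min at room temperature; baseline taken, compound added and read 180 s; EC20 dopamine then added and read 180 s.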
# D1 PAM: human D1 dopamine receptor positive modulation; potentiation, % at 10 µM; 360,000 compounds, 0.036% hits; HEK293 TREx D1 cells, calcium flux, dopamine EC20 potentiation; AID 504651; in the data active = potentiation above about 30%; note: 0% is about no effect
# D2 ag: agonists of human D2 dopamine receptor; P14416; HEK293 T-REx D2 cells, calcium flux agonist mode; activation, % at 2 µM; 340,000 compounds, 0.53% hits; AID 485358;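 active = activation over 3 SD above normal in the single-dose calcium agonist read, cut at about 30% in these data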; note: 0% is about no effect
#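 Calcium-flux readout, 1 cycle/sec over 180 s following compound pin transfer, in inducible HEK293 Trex D2 cells (force-coupled); dopamine controls included. Positive calcium responses during this window marked compounds as potential agonists.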
# D1 agonist: human D1 receptor agonism; HEK293 T-REx D1 cells, calcium flux, agonist mode; activation, % at 2 µM; 360,000 compounds, 1% hits; in the data active = activation above about 30%; note: 0% is about no effect
#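 Agonism was scored from calcium flux recorded over 180 s (1 read/s) after pintool compound addition, following a 10-cycle baseline. Cells were inducible force-coupled HEK293 TREx D1, plated overnight at 30 C and loaded with no-wash calcium dye.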
# D1 antag: human D1 dopamine receptor antagonism | HEK293 TREx D1 cells, calcium flux, dopamine EC80; active compounds read low | 360,000 compounds, 3.2% hits | P21728 | activity change, negative = inhibition, % at 10 µM | AID 504652; in the data active = activity change below about -30%; note: % is set by controls: 0 for no effect and ±100 for the full control effect
#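 Compound effects on dopamine-evoked calcium signalling were measured in tetracycline-induced HEK293 Trex D1 cells. Dopamine at EC80 followed a 180 s compound pre-read, and fluorescence was tracked kinetically for 180 s more.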
# An asterisk follows results filed as active; x = not tested or not shown. A portion of the library; rates above refer to the full screens.
Molecule | TRHR PAM | D2 antag | D2 potentiator | D1 PAM | D2 ag | D1 agonist | D1 antag
COc1cccc(CNc2nccn(-c3ccc(OC)c(OC)c3)c2=O)c1 | 7 | x | 0 | -5 | 0.4 | 2 | 7
CCOC(=O)c1nnn(-c2nc(OC)nc(N3CCCCC3)n2)c1-c1ccccc1 | -8 | 9 | -9 | -4 | 0.3 | 2 | -14
Cc1ccc(CNc2nccn(-c3cc(C)cc(C)c3)c2=O)cc1 | 1 | x | -11 | -3 | 0.0 | 4 | -10
COC(=O)c1cccc(NC(=O)NC2CCCN2S(=O)(=O)c2ccc(Cl)cc2)c1 (stereo not drawn) | -15 | 12 | 8 | -6 | 0.1 | 7 | 8
Nc1c(C(=O)Nc2ccccc2)sc2nc(-c3cccnc3)ccc12 | -3 | 7 | 15 | -4 | -0.5 | 8 | 1
COC(=O)CCCC1=CC2=CC(=O)C(C)(OC(=O)CCc3ccccc3)C(=O)C2=CO1 (stereo not drawn) | 4 | 13 | 16 | -1 | 0.6 | 6 | -2
COc1ccc(CNc2nc3c(-c4ccccc4)nnn3c3ccccc23)cc1 | -1 | x | 0 | 4 | -0.2 | 1 | -15
COc1ccc(C(=O)c2oc3ccccc3c2NC(=O)c2ccc(F)cc2)cc1 | 12 | x | 0 | 3 | 0.4 | 0 | 13
O=C(CSc1ccc2nnc(-c3cccnc3)n2n1)NCc1ccco1 | -5 | 11 | -11 | -6 | 3.5 | 2 | -25
CSc1cccc(Nc2cc(C(=O)NC3CCCCC3)c3ccccc3n2)c1 | -10 | x | 0 | 1 | 1.0 | 11 | -13
CCN(C(=O)c1cc2c(=O)oc3ccccc3c2s1)c1cccc(C(F)(F)F)c1 | 0 | x | 17 | 1 | -0.7 | -1 | -2
COc1cccc(/C=C/c2nc(C#N)c(NCCN(C)C)o2)c1 | 0 | x | 7 | 4 | 1.8 | 0 | 2
CCc1nn2c(-c3ccco3)ccnc2c1-c1ccc(F)cc1 | 0 | x | -5 | -6 | 0.8 | 4 | -1
COc1cc2c(cc1OC)CN(C(=O)CSc1nc3[nH]ncc3c(=O)n1-c1ccccc1)CC2 | 5 | -5 | -8 | -1 | -2.3 | -1 | 0
C=CCN(c1ccccc1)S(=O)(=O)c1cc2c(cc1C)NC(=O)CO2 | 0 | -4 | 2 | -10 | 0.8 | 5 | 1
Cc1cccc(OCC(=O)Nc2ccc3nc(Nc4cccc(C(F)(F)F)c4)cc(C)c3c2)c1 | 0 | x | -1 | -2 | 0.4 | 0 | 1
CC(C)Oc1ccc(CNC(=O)C2CCN(c3nc4ccccc4n(C)c3=O)CC2)cc1 | 0 | x | 0 | 0 | 0.7 | -1 | 19
COC(=O)c1c(NC(=O)CCCOc2ccccc2)sc2c1CCC(C)C2 (stereo not drawn) | 3 | x | -1 | -2 | -0.6 | 2 | -11
O=C(NCCc1c[nH]c2ccccc12)c1cnc2sccn2c1=O | 1 | -12 | 12 | 4 | -0.7 | 5 | -13
O=C(Cn1c(=O)n(Cc2ccco2)c(=O)c2ccccc21)Nc1cccc(F)c1 | 7 | x | 19 | 0 | 0.1 | 24 | -4

# Reformatted with two lines to a compound: entries from further up
# Every second line gives: TRHR PAM	D2 antag	D2 potentiator	D1 PAM	D2 ag	D1 agonist	D1 antag
- COc1ccc(C(=O)c2oc3ccccc3c2NC(=O)c2ccc(F)cc2)cc1
 : 12	x	0	3	0.4	0	13
- O=C(CSc1ccc2nnc(-c3cccnc3)n2n1)NCc1ccco1
 : -5	11	-11	-6	3.5	2	-25
- CSc1cccc(Nc2cc(C(=O)NC3CCCCC3)c3ccccc3n2)c1
 : -10	x	0	1	1.0	11	-13
- CCN(C(=O)c1cc2c(=O)oc3ccccc3c2s1)c1cccc(C(F)(F)F)c1
 : 0	x	17	1	-0.7	-1	-2
- COc1cccc(/C=C/c2nc(C#N)c(NCCN(C)C)o2)c1
 : 0	x	7	4	1.8	0	2
- CCc1nn2c(-c3ccco3)ccnc2c1-c1ccc(F)cc1
 : 0	x	-5	-6	0.8	4	-1
- COc1cc2c(cc1OC)CN(C(=O)CSc1nc3[nH]ncc3c(=O)n1-c1ccccc1)CC2
 : 5	-5	-8	-1	-2.3	-1	0
- C=CCN(c1ccccc1)S(=O)(=O)c1cc2c(cc1C)NC(=O)CO2
 : 0	-4	2	-10	0.8	5	1
- Cc1cccc(OCC(=O)Nc2ccc3nc(Nc4cccc(C(F)(F)F)c4)cc(C)c3c2)c1
 : 0	x	-1	-2	0.4	0	1
- CC(C)Oc1ccc(CNC(=O)C2CCN(c3nc4ccccc4n(C)c3=O)CC2)cc1
 : 0	x	0	0	0.7	-1	19
- COC(=O)c1c(NC(=O)CCCOc2ccccc2)sc2c1CCC(C)C2 (stereo not drawn)
 : 3	x	-1	-2	-0.6	2	-11
- O=C(NCCc1c[nH]c2ccccc12)c1cnc2sccn2c1=O
 : 1	-12	12	4	-0.7	5	-13
- O=C(Cn1c(=O)n(Cc2ccco2)c(=O)c2ccccc21)Nc1cccc(F)c1
 : 7	x	19	0	0.1	24	-4

# (cont.)
Molecule | TRHR PAM | D2 antag | D2 potentiator | D1 PAM | D2 ag | D1 agonist | D1 antag
COc1cccc(-c2ccc3c(N)c(C(=O)Nc4ccc(Cl)cc4F)sc3n2)c1 | -2 | x | 0 | -2 | 1.5 | 8 | -31*
Cc1cccc(C(=O)Nc2c(C(=O)N3CCN(c4ccc(F)cc4)CC3)oc3ccccc23)c1 | -10 | x | -2 | -4 | 0.5 | 2 | 12
CCCc1nc(NCc2ccccn2)c2nnn(Cc3ccccc3F)c2n1 | -7 | 14 | -2 | 3 | 1.2 | 5 | -16
Cc1cccc(-n2ncc3c(N4CCC5(CC4)OCCO5)ncnc32)c1 | -14 | 14 | 2 | -6 | -1.5 | 2 | 4
COc1nc(NC(C)=O)nc(C)c1Br | -3 | 4 | -8 | 3 | 0.8 | 2 | 7
COC(=O)c1ccc(CSc2ccc3nnc(-c4cccnc4)n3n2)o1 | -9 | -8 | -2 | -14 | -1.5 | 2 | -46*
Cc1cccc(C)c1NC(=O)Cn1c(=O)n(Cc2ccccc2Cl)c(=O)c2cccnc21 | 4 | x | 6 | -5 | 0.2 | -1 | -8
O=C(c1ccc2c(c1)OCO2)N1CCN=C1SCc1ccccc1 | -2 | 13 | 17 | 0 | 0.2 | 3 | -9
CCOC(=O)c1c(NC(=O)c2cc3ccccc3c(=O)o2)sc2c1CCC(C)C2 (stereo not drawn) | -13 | x | 4 | -2 | -1.2 | 2 | 3
COc1ccc2cc3cc(C(=O)NCCCN4CCc5ccccc5C4)sc3nc2c1 | -14 | -16 | -24 | -3 | -0.2 | 1 | 2
O=C(c1ccc(CSCc2ccccc2F)o1)N1CCN(c2ccc(N3CCOCC3)nn2)CC1 | 0 | x | x | -5 | x | 1 | -8
O=C(CSc1ncnc2c1oc1ccccc12)Nc1ccccc1F | -5 | 13 | 5 | -1 | -1.0 | 2 | -15
CCc1nnc(NC(=O)CSc2ccc(-c3ccc(F)cc3)nn2)s1 | -1 | 3 | -2 | -4 | -1.0 | 2 | 6
COc1cccc(-c2cc(C(=O)Nc3ccc4c(c3)OCCO4)c3ccccc3n2)c1 | 14 | x | x | -2 | x | 1 | -2
CC1(OC(=O)CCc2ccccc2)C(=O)C=C2C=C(c3ccc(C#N)cc3)N(CC3CC3)C=C2C1=O (stereo not drawn) | -7 | 14 | 4 | -2 | 0.5 | 2 | 6
Cc1ccc(S(=O)(=O)N2CCCCC2)cc1NC(=O)CSc1ncnc2ccccc12 | 1 | 5 | 10 | -7 | 0.2 | 12 | 0

# Ordered by value in D1 antag (smallest number first): some entries from above
structure,D1 antag
O=C(c1ccc(CSCc2ccccc2F)o1)N1CCN(c2ccc(N3CCOCC3)nn2)CC1,-8
Cc1ccc(S(=O)(=O)N2CCCCC2)cc1NC(=O)CSc1ncnc2ccccc12,0
CCc1nnc(NC(=O)CSc2ccc(-c3ccc(F)cc3)nn2)s1,6
